# KCNQ2 block – KCNQ2 potassium channel inhibitors, primary screen, cell-based, CHO-K1, FluxOR thallium flux, B-score (AID 2156); 20 min; hits give low values; only compounds with negative scores are shown here; some inactives read as strong as hits; hit rate 1.1% among 310,000; B-score at 10 µM;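 active = fluorescence ratio B-score at most minus 3 library SDs, with starting brightness B-score within 2 library SDs, cut at about -5.5 in these data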
# Target sequence (O88943 whole entry, looked up): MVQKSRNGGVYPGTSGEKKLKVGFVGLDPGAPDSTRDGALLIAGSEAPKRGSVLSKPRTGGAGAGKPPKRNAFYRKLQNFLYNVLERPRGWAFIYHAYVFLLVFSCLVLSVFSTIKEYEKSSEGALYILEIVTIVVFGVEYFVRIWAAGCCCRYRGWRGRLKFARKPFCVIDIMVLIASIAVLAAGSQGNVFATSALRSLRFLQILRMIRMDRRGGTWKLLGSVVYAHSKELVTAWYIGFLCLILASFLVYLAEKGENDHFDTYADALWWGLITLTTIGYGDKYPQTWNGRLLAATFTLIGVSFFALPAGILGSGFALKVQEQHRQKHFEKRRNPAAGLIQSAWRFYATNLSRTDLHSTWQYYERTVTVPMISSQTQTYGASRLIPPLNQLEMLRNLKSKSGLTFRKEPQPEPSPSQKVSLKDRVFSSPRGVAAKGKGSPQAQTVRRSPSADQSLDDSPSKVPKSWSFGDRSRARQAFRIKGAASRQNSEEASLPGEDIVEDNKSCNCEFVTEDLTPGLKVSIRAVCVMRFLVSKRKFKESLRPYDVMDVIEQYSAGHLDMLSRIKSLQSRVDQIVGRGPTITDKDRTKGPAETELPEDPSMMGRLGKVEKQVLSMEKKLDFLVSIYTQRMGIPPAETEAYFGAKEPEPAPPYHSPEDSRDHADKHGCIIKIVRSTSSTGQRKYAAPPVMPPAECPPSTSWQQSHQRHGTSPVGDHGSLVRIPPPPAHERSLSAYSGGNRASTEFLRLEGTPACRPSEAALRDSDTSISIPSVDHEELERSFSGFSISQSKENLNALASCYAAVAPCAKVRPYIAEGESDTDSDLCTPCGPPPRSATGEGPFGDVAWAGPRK
# KCNQ2 block baseline – further read-out of KCNQ2 block, marked with its call; B-score; measured here: initial fluorescence intensity artifact check;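 brightness before thallium and not channel activity; 0 = typical well and far values either way flag optical interference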
# * hit, by the source's call; i = inactive. The list is partial, so the mix of outcomes need not match the whole.
molecule,KCNQ2 block,KCNQ2 block baseline
COc1ccc(NC(=O)C2CCC(CNS(=O)(=O)c3csc(C(N)=O)c3)CC2)cc1OC (stereo not given),i,0.69
CCOC(=O)C1(Cc2cccc(F)c2)CCN(C(=O)c2cscn2)CC1,i,0.71
O=C(CNC(=S)N(Cc1ccccc1)Cc1ccccc1F)NCc1ccccc1,i,-0.25
Nc1cccc(CCc2nc3ccccc3[nH]2)c1,i,1.1
CCc1c(-c2ccccc2)[n+](=O)c2c(n1[O-])CCC2,i,-0.02
Cc1ccc(NC(=O)c2cc(S(=O)(=O)N3CCCCC3)cs2)cc1,i,0.71
O=C1/C(=C\c2ccc(O)c(O)c2)SC(=S)N1Cc1ccccc1,i,1.5
O=C1c2ccc3c4c(ccc(c24)C(=O)N1c1cccc(O)c1)CC3,i,0.44
COCC(=O)N(Cc1ccc(OC)cc1)Cc1nc2ccccc2c(=O)[nH]1,i,-0.02
O=C(CSc1nc(O)c(Cc2ccccc2F)c(=O)[nH]1)N1CCCCCC1,i,2.6
COC(=O)c1cc(S(=O)(=O)NC2CCC(C)CC2)cn1C (stereo not given),i,-0.36
Fc1ccc(C[n+]2csc3ccccc32)cc1,i,-0.51
Cc1ccc(S(=O)(=O)N2CCC(Oc3cccc(C(F)(F)F)c3)CC2)cc1,i,0.11
CCCS(=O)(=O)c1c(S(=O)(=O)CCC)c2c3ccccc3ccn2c1C(N)=O,i,1.1
COc1ccccc1NC(=O)c1ccc(CN(c2cc(Cl)ccc2C)S(=O)(=O)c2ccccc2)cc1,i,2.2
Cc1c(C(=O)CN2CCOCC2)[nH]c2ccccc12,i,-0.84
O=C(NCCc1cn2ccccc2n1)c1cc(COc2ccc3ncccc3c2)on1,-6*,-1.9*
Cn1ccc(C(=O)NC(=S)N2CCSCC2)n1,i,0.41
COc1ccc(C(CNC(=O)COc2ccc(Br)cc2F)N2CCCC2)cc1 (stereo not given),i,2.1
O=C(c1ccc(Cl)c([N+](=O)[O-])c1)N(Cc1ccc(F)cc1)C1CCS(=O)(=O)C1 (stereo not given),i,0.99
O=C(Nc1nncs1)c1ccc(N2C(=O)C3C4C=CC(C4)C3C2=O)cc1 (stereo not given),i,-2.2
CCOC(=O)C1=C(c2ccccc2)OC(N)=C(C#N)C1C(C)C (stereo not given),i,-0.93
O=C(CSc1n[nH]c(-c2ccco2)n1)Nc1ccccc1Cl,i,0.4
COc1ccc(CCN2C(=O)C3C4C=CC(C3C2=O)C2C(=O)N(CCc3ccc(OC)c(OC)c3)C(=O)C42)cc1OC (stereo not given),i,-0.04
C/C(O)=c1/ccc2cccc3nc(C)nc1c23,i,20
O=C1C(=C(c2ccccc2)c2ccccc2)Nc2ccccc21,i,-0.66
CCc1c(C)nc(SCC(=O)N2CC(C)OC(C)C2)[nH]c1=O (stereo not given),i,-0.74
O=C(COC(=O)Cc1ccccc1F)Nc1ccc2[nH]c(=O)[nH]c2c1,i,-0.95
COc1ccc(C2C(C(=O)c3cccs3)=C(O)C(=O)N2c2nncs2)cc1 (stereo not given),i,0.82
CC(C)OCCCNC(=O)C(NS(=O)(=O)c1ccc2c(c1)c(=O)n(C)c(=O)n2C)c1ccccc1 (stereo not given),i,1.4

# Compound profiles (already shown).
# CCc1c(C)nc(SCC(=O)N2CC(C)OC(C)C2)[nH]c1=O (stereo not given) is listed with KCNQ2 block = i; KCNQ2 block baseline = -0.74
# O=C(CSc1nc(O)c(Cc2ccccc2F)c(=O)[nH]1)N1CCCCCC1 is listed with KCNQ2 block = i; KCNQ2 block baseline = 2.6

# The main list resumes, starting 7 compounds before the break.
molecule,KCNQ2 block,KCNQ2 block baseline
COc1ccc(CCN2C(=O)C3C4C=CC(C3C2=O)C2C(=O)N(CCc3ccc(OC)c(OC)c3)C(=O)C42)cc1OC (stereo not given),i,-0.04
C/C(O)=c1/ccc2cccc3nc(C)nc1c23,i,20
O=C1C(=C(c2ccccc2)c2ccccc2)Nc2ccccc21,i,-0.66
CCc1c(C)nc(SCC(=O)N2CC(C)OC(C)C2)[nH]c1=O (stereo not given),i,-0.74
O=C(COC(=O)Cc1ccccc1F)Nc1ccc2[nH]c(=O)[nH]c2c1,i,-0.95
COc1ccc(C2C(C(=O)c3cccs3)=C(O)C(=O)N2c2nncs2)cc1 (stereo not given),i,0.82
CC(C)OCCCNC(=O)C(NS(=O)(=O)c1ccc2c(c1)c(=O)n(C)c(=O)n2C)c1ccccc1 (stereo not given),i,1.4
CC(C)(C)C(=O)N(CCN(C(=O)C(C)(C)C)c1ccccc1)c1ccccc1,i,-0.01
CSc1ccc(S(=O)(=O)N2CCC(C(=O)N3CCOCC3)CC2)cc1,i,-0.07
Cc1cc(C)cc(N(CC(=O)Nc2ccc(Br)cc2)S(=O)(=O)c2c(C)[nH]c(=O)[nH]c2=O)c1,i,-0.31
O=C(Cc1ccccc1)NC1(Cc2ccc(O)cc2)CCCCC1,i,0.41
CCOC(=O)c1ccc(NC(=O)c2nc[nH]c2C(=O)NCCCCCNC(=O)OC(C)(C)C)cc1,i,-1.1
CCC1c2ccc(C)n2CCN1C(=O)Nc1ccc(F)cc1 (stereo not given),i,-0.08
CCN(CC)CCNCC(=O)Nc1ccc(Oc2ccccc2)cc1,i,0.04
CN(C)CCCNC(=O)CC(c1ccccc1)c1ccccc1O (stereo not given),i,-0.33
COc1ccc(-n2c(=S)[nH]c3c(oc4ccccc43)c2=O)cc1,i,-0.05
O=C(Nc1cn(-c2ccccc2)nc1-c1cccs1)c1ccco1,i,-0.01
CCC1=C(C(=O)OC)C(c2cc(OC)ccc2OC)C(C#N)=C(N)O1 (stereo not given),i,-0.14
Cc1nn(-c2ccccn2)c2c1-c1nc(N)ncc1CC2,i,-0.28
CCOC(=O)Nc1nnc(-c2ccc(OC)cc2)s1,i,2
Oc1ccc(CN2CCCCC2)nc1-c1ccccc1,i,-1.8
CC1CCCN(S(=O)(=O)c2ccc(N(C(=O)c3cnccn3)C(C(=O)NC3CCCCC3)c3cccs3)cc2)C1 (stereo not given),i,0.45
CC(C)(C)c1ccc(COn2c(=O)c(-c3ccco3)[n+]([O-])c3ccccc32)cc1,i,-0.56
Cc1cc(C)c2sc(N)nc2c1,i,1.1
CCOC(=O)CSc1nnc(Cn2nnc(-c3ccccc3)n2)n1C,i,1.3
COc1ccc(C(NC(=O)C2CCCCC2)c2c(O)ccc3ccccc23)cc1 (stereo not given),i,-0.73
COc1ccc(NC(=O)N(Cc2ccc(C)cc2)Cc2ccccn2)c(OC)c1,i,1.2
O=C(Cn1c(=O)cnc2ccccc21)N1CCN(S(=O)(=O)c2ccccc2Br)CC1,i,1.4
O=C(CCC1CCCN(C(=O)c2ccc3cc[nH]c3c2)C1)NCc1ccc(F)c(F)c1 (stereo not given),i,-0.33
Cc1onc(-c2ccccc2)c1C(=O)NC(=S)NNC(=O)c1cccnc1,i,-0.88
COC(=O)c1ccccc1NC(=S)NC(=O)c1ccccc1F,i,3.6
COc1ccccc1CN(C)C(=O)C1COc2ccccc2O1 (stereo not given),i,0.7
Cc1cc(-c2ccccc2)c2c(=O)[nH][nH]c2n1,i,0.16
c1ccc(-c2ccc(OCCCNC3CCCC3)cc2)cc1,i,0.02
Cc1cc(C)c(NC(=O)COc2ccccc2C(=O)Nc2ccc3c(c2)oc2ccccc23)c(C)c1,i,-1.4
COc1ccc(C(Nc2ccccn2)c2c(NC(=O)c3ccco3)sc(C)c2C)cc1OC (stereo not given),i,0.6
CC1=C(SCCC#N)S/C(=C2\SC(C)=C(SCCC#N)S2)S1,i,-0.53
CC(=O)N1CCc2cc(S(=O)(=O)CCC(=O)NCc3ccc4c(c3)OCO4)ccc21,i,1.2
CCN(CC)S(=O)(=O)c1ccc(N2CCOCC2)c(NC(=O)COc2ccccc2C#N)c1,i,-1
CCOC(=O)c1cc(C(=O)NCc2ccc(Cl)cc2Cl)nn1C,i,-1.2
CSC1=NCCN1C(=O)c1ccc(S(=O)(=O)N2CCCC2)cc1,i,3
c1ccc(Cn2nnnc2C(c2cccnc2)N2CCN(C3CCCCC3)CC2)cc1 (stereo not given),i,-2.5
CCCCN(C(=O)CSc1nncn1-c1ccccc1OC)c1c(N)n(Cc2ccccc2)c(=O)[nH]c1=O,i,0.12
CCCc1[nH]nc2c1C(c1cn[nH]c1-c1ccc(F)cc1)C(C#N)=C(N)O2 (stereo not given),i,-0.02
Cc1nc(NC(=O)C2CC2)sc1C(=O)NC1CCCCC1,i,0.2
CC(c1ccccc1)n1c(S(=O)(=O)O)nc2ccccc21 (stereo not given),i,2
OC1(c2ccccc2)CN(c2ccccc2)C2=[N+]1CCS2 (stereo not given),i,-0.05

# Carrying on:
compound	KCNQ2 block	KCNQ2 block baseline
O=C(O)CCCC(=O)N1CCc2cc(S(=O)(=O)NCc3ccccc3)ccc21	i	-0.58
CC(C)C[C@H](CO)Nc1nc(Nc2cccc(Cl)c2)c2ncn(C(C)C)c2n1	i	-0.31
CC(=O)Nc1ccc2c(CN3C(=O)NC(C)(c4ccc(C)cc4)C3=O)cc(=O)oc2c1 (stereo not given)	i	-0.4
CC1=C(C(=O)OCc2ccccc2)C(c2ccc([N+](=O)[O-])cc2)NC(=O)N1C (stereo not given)	i	-0.77
CC(C)CNC(=O)c1cccc(NC(=O)c2ccc3c(c2)C(=O)N(C)C3=O)c1	i	0.66
Cn1c2ccccc2c2cc(/C=C(\NC(=O)c3ccccc3)C(=O)NCC(=O)O)ccc21	i	-0.61
O=C(CSc1nnc(-c2ccc(F)cc2)c2ccccc12)Nc1cccc(Cl)c1	i	-1.3
CCCSc1nnc(CNC(=O)C23CC4CC(CC(C4)C2)C3)n1Cc1ccccc1	i	-0.03
COc1ccc(C(=O)NCCONC(=O)c2ccc(OC)cc2)cc1	i	-0.46
O=[N+]([O-])c1cc(/C=N/Nc2nc(N3CCCCC3)nc(N3CCCCC3)n2)ccc1O	i	-0.22
COc1ccc(CCNC(=O)c2ccc(S(=O)(=O)N(C)c3ccccc3)cc2)cc1OC	i	-1.6
CCc1ccc(N2C(=O)C(Cl)=C(N3CCCCCC3)C2=O)cc1	i	2.9
COc1ccccc1NC(=O)CCc1nc2sc3c(c2c(=O)[nH]1)CCCC3	i	-0.34
O=C(CSc1ncccn1)NC(=O)NCc1ccco1	i	2.6
Cc1oc(-c2ccccc2F)nc1CN1CCC(C(=O)NC2CCCc3ccccc32)CC1 (stereo not given)	-7.3*	-1.6*
CC(C)NS(=O)(=O)c1ccc(OCC(=O)N2CCCC2)c(Cl)c1	i	-1.1
CC(C)(C)C(=O)OCCNc1nc(-c2ccccc2)nc2ccccc12	i	1.3
CCOc1ccccc1N(CC(=O)Nc1cccnc1)S(=O)(=O)c1ccc(C)cc1	i	-0.21
O=C(Nc1cc([N+](=O)[O-])ccc1N1CCCC1)c1ccco1	i	0.94
O=C1OCCN1CCN(CN1C(=O)CCC1=O)CN1C(=O)CCC1=O	i	-0.02
CCOc1ccccc1N1CCN(C(=O)Nc2ccc(F)c(Cl)c2)CC1	i	-1.3
CCOc1ccc(CCNC(=O)COC(=O)c2cccc(OC)c2O)cc1OCC	i	2.2
CC(Oc1ccc(Br)cc1)C(=O)Nc1cc(S(=O)(=O)N2CCOCC2)ccc1N1CCCC1 (stereo not given)	i	-1.1
COc1ccc(CNC(=S)NCc2ccc(F)cc2)cc1	i	-2.9
Cc1cc(C(F)F)nn1CC(=O)N1CCSCC1	i	2
CC(Sc1nnc(CNC(=O)c2ccco2)n1C)C(=O)Nc1nccs1 (stereo not given)	i	0.13
COc1cc(NS(=O)(=O)c2ccc(NC(=S)NC(=O)c3ccc(F)cc3)cc2)nc(OC)n1	i	0.1
COc1cccc(CNS(=O)(=O)c2ccc(S(=O)(=O)N3CCCC3)cc2)c1	i	-2
O=C(NCCc1nnc2ccc(NCC3CCCO3)nn12)c1ccccc1 (stereo not given)	i	1.6
O=C(/C=C/C(=O)N1CCc2ccccc2C1)N1CCc2ccccc2C1	i	-0.83
CC(C)c1cccc(C(C)C)c1NC(=S)Nc1cccc(Cl)c1	i	-1.1
O=C(c1ccc(Cl)c(S(=O)(=O)N2CCOCC2)c1)N1CCCCC1	i	-0.97
Cc1ccc(NC(=O)CSc2nnc3ccccn23)cc1	i	-0.75
Cc1cccc(N=C2NC(=O)/C(=C/c3cccnc3)S2)c1	i	0.44
COc1cc(CN2CCN(C(C)C)C(CCO)C2)ccc1OCc1ccccc1 (stereo not given)	i	3
CCN(CC)C(=O)CSc1nc2c(sc(=S)n2-c2ccccc2OC)c(=O)n1-c1ccccc1	i	1.3
CCOC(=O)C1CCN(C(=O)c2ccccc2NC(=O)c2ccc(Cl)cc2)CC1	i	-1.2
CC1CCCCN1C(=O)Cn1nnc(-c2cccnc2)n1 (stereo not given)	i	2
CC(C)(C)c1ccc(C2=CC(c3ccccc3)n3ncnc3N2)cc1 (stereo not given)	i	0.69
CCCN(CC1CC1)C(=O)CSc1ncnc2sc(C)c(C)c12	-6.3*	-2.4*
CCN1CCN(C(=O)CCNC(=O)Cn2cnc3ccccc3c2=O)CC1	i	0.05
CC1CN(C(=O)CCC(=O)NCCCN2CCN(Cc3ccccc3)CC2)c2cc(Cl)ccc2O1 (stereo not given)	i	3.4
CC(=O)Nc1cccc(NC(=O)CS(=O)(=O)c2cn(CC(=O)N(C(C)C)C(C)C)c3ccccc23)c1	i	0.14
CCOc1ccc(C(=O)Nc2cc(S(=O)(=O)Nc3ccccc3Cl)ccc2N2CCOCC2)cc1	i	-0.12
